# Screening data from PubChem.
# Lassa entry inh: qHTS for Inhibitors of binding or entry into cells for Lassa Virus; Lassa virus pseudotype entry inhibition, cell reporter; control for the full effect not named in the record; Potency, µM (doses to about 37.9 µM), inactives show at the highest dose activity change, negative = inhibition, most hits filed as inhibitors; actives 1.2% (n = 300,000); AID 540256, 2011; active means well fitted inhibition curve with a large enough effect; inconclusive means small, poorly fitted or top-dose-only effect, or effect the other way; inactive means flat fitted curve, though single readings scatter; tested in HEK293 cells; note: % is set by controls: 0 for no effect and ±100 for the full control effect; nearly all actives have a fitted effect of over 50% in size; luciferase read-out
# Cruzain inh Det: qHTS Assay for Promiscuous and Specific Inhibitors of Cruzain (with detergent); Potency, µM, for inactives: max response, negative = inhibition, usual class: inhibitors; purified cruzain, Z-FR-AMC fluorescence, 0.01% Triton; actives 0.43% (n = 200,000); Cruzipain (Trypanosoma cruzi), P25779; active = well fitted curve in the direction sought with a large enough effect; inconclusive = small, poorly fitted or top-dose-only effect, or another doubt; inactive = no such curve, though single readings can be large; an effect the other way counts as inactive or inconclusive;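 note: plate controls were neutral wells for no effect and buffer without enzyme for full effect; nearly all actives have a fitted effect of over 40% in size; top concentration of the series not given in the record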
# Target sequence (P25779 123-467 limits assumed): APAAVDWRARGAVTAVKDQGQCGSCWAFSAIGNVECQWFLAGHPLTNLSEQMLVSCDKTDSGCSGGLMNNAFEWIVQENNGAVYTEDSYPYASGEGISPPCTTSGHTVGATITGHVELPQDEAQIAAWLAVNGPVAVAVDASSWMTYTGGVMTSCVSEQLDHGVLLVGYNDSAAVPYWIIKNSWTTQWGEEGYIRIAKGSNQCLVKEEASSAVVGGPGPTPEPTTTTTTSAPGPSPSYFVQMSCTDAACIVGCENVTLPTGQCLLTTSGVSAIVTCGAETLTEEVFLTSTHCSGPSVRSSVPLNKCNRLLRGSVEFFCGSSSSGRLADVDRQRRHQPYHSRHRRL
#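 Enzyme 1.5 nM, Z-FR-AMC 2 uM, NaOAc 100 mM pH 5.5, DTT 5 mM, Triton X-100 0.01%; 15 min RT compound preincubation; kinetic ex360/em450, 60 s delta.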
# Marburg entry inh: qHTS for inhibitors of binding or entry into cells for Marburg Virus; Potency, µM (series often up to 37.8 µM), for the others: at the top dose activity change, negative = inhibition, hits mostly inhibitors; actives 1.8% (n = 300,000); AID 540276, 2011; Marburg virus pseudotyped entry inhibition, cell reporter; control for the full effect not named in the record; about a third of the inactives were read at about 46 µM; active = well fitted inhibition curve with a large enough effect; inconclusive = small, poorly fitted or top-dose-only effect, or effect the other way; inactive = flat fitted curve, though single readings scatter; tested in HEK293 cells; about a fifth of its hits are not listed in these tables; note: % is set by controls: 0 for no effect and ±100 for the full control effect; luciferase read-out
# NS1 inh: qHTS Assay for Inhibitors of Influenza NS1 Protein Function | S. cerevisiae slowed by influenza A NS1, growth recovery by OD600 | Potency, µM (series often up to 46.1 µM), without a hit: top-dose activity, positive = more growth | actives 0.4% (n = 270,000); note: actives are rising curves; nearly all actives have a fitted effect of over 50% in size
#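 Compounds were scored for reversing the slow growth caused by influenza A NS1 in S. cerevisiae, measured by optical density at 600 nm. Assay medium contained 2% galactose at pH 6.0; NS1-free yeast of the same strain were the positive control.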
# SARS PLpro yeast: qHTS of Yeast-based Assay for SARS-CoV PLP. S. cerevisiae expressing SARS-CoV PLpro, growth rescue; control for the full effect not named in the record. Potency, µM (doses to about 32.9 µM), without a hit: at the top dose activity, positive = growth rescue. actives 0.19% (n = 330,000). AID 485353, 2010; note: 0% is about no effect; nearly all actives have a fitted effect of over 55% in size; growth read by luminescence after 48 h
# StopGo reporter: High Throughput Screening for Foot and Mouth Disease Virus Antivirals; human cells with a luciferase reporter of 2A StopGo recoding; control for the full effect not named in the record; Potency, µM (top dose mostly 57.9 µM), for the others: top-dose signal change, negative = less light; actives 1.2% (n = 410,000); AID 1159524, 2015; active = well fitted falling curve with a large enough effect; inconclusive = small, poorly fitted or top-dose-only effect; inactive = no such curve, though single readings can be large or run the other way; tested in HEK293T cells; note: % is set by controls: 0 for no effect and ±100 for the full control effect; nearly all actives have a fitted effect of over 45% in size; luciferase light after 4 h
# RE007 growth inh: qHTS Assay for Inhibitors of the HIV-1 protein Vpr | S. pombe RE007 Vpr strain, BacTiter-Glo ATP luminescence, 24 h; control for the full effect not named in the record | Potency, µM (doses to about 92.2 µM), without a hit: top-dose activity change, negative = less growth | actives 0.21% (n = 360,000) | AID 651644, 2012; active = well fitted falling curve with a large enough effect; inconclusive = small, poorly fitted or top-dose-only effect; inactive = no such curve, though single readings can be large or run the other way;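 note: % is set by controls: 0 for no effect and ±100 for the full control effect; nearly all actives have a fitted effect of over 50% in size; the assay follows cell death caused by Vpr and the record does not say whether a fall means rescue or toxicity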
#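 Fission yeast strain RE007, carrying one chromosomally integrated HIV-1 vpr copy, was seeded at OD 0.01 in PMG+AL medium with 23 nL pinned compound. After 24 h at 30 °C and 99% humidity, viability was read by BacTiter-Glo luminescence.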
# Cruzain noTriton: qHTS Assay for Promiscuous and Specific Inhibitors of Cruzain (without detergent) | Cruzipain (Trypanosoma cruzi), P25779 | purified cruzain, Z-FR-AMC fluorescence, no detergent | Potency, µM, inactives show max response, negative = inhibition, most hits filed as inhibitors | actives 2.3% (n = 200,000); active = well fitted curve in the direction sought with a large enough effect; inconclusive = small, poorly fitted or top-dose-only effect, or another doubt; inactive = no such curve, though single readings can be large; an effect the other way counts as inactive or inconclusive;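 note: plate controls were enzyme without inhibitor for no effect and buffer without enzyme for full effect; nearly all actives have a fitted effect of over 40% in size; top concentration of the series not given in the record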
#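 Detergent-free condition (0.00005% Triton X-100) in acetate buffer pH 5.5 with DTT. 1.5 nM enzyme and compound were pre-mixed 15 min, then 2 uM Z-FR-AMC substrate added; reaction progress from fluorescence change between first and third reads (60 s).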
# * hit, by the source's call; ? = inconclusive; . = not tested or not shown; & = joins results of further samples; [ ] = dose if it differs, or a comment. Unless noted, calls come from the whole dose curve; as a rule, active means well fitted rising curve with a large enough effect; inconclusive means small, poorly fitted or top-dose-only effect; inactive means no such curve, though single readings can be large or run the other way. Potency is the fitted concentration of half-maximal effect.
canonical_smiles	Lassa entry inh	Cruzain inh Det	Marburg entry inh	NS1 inh	SARS PLpro yeast	StopGo reporter	RE007 growth inh	Cruzain noTriton
CCCC[n+]1ccn(-c2nc3ccccc3nc2[N-]S(=O)(=O)c2ccc(Br)cc2)c1	5%	.	1%[46.1 µM]	1%	0%	26%	-5%	.
CCN(CC(=O)Nc1c(F)cccc1F)C(=O)Cc1csc(-c2ccccc2)n1	-10%	.	-1%	.	0%	-8%	20%	.
CCN(Cc1cc2ccccc2[nH]c1=O)C(=O)c1cccc([N+](=O)[O-])c1	.	.	.	4%	0%	-24%	3%	.
O=C1C2C3C=CC(C4CC34)C2C(=O)N1/N=C/c1ccc(-c2ccccc2[N+](=O)[O-])o1 (stereo not drawn)	?	-2.2%	?	-27%	-6%	-15%	21%	?
O=C(Nc1cccc(C(F)(F)F)c1)NC1CCN(S(=O)(=O)c2ccc(F)cc2)CC1	18%	-3.4%	4%	5%	19%	?	3%	5%
Cc1ccc2nc(N3CCN(c4ccccc4)CC3)c3nnnn3c2c1	19%[46.1 µM]	-0.3%	.	.	.	-8%	.	-2%
COc1ccc(Cc2nnc(-c3ccc(F)cc3)o2)cc1OC	.	-2.3%	.	-19%	-10%	-27%	-4%	9%
CCN1CCN(c2ccc(S(=O)(=O)N3CCCCC3)cc2NC(=O)CC(C)c2ccccc2)CC1 (stereo not drawn)	?	.	?	.	-4%	-11%	2%	.
CCCOC(=O)c1ccc(NC(=O)Cc2cccs2)cc1	28%[46.1 µM]	.	?	-24%	-5%	2%	-11%	.
Cn1c(=O)c2c(SCC(=O)N3CCCc4ccccc43)nc(CC(C)(C)C)nc2n(C)c1=O	.	-11%	.	-84%	0%	22µM*	6%	4%
CC1(C)Cc2nc3[nH]c(=S)n(-c4ccccc4)c(=O)c3cc2CO1	-2%	.	7%	.	.	-24%	16%	.
CCN(CC)S(=O)(=O)c1ccc(N2CCCC2)c(NS(=O)(=O)c2ccccc2)c1	?	-3.7%	-1%	8%	-23%	16%	-10%	0%
COc1cccc(-c2nnc(SCC(=O)Nc3cc(C)on3)n2C)c1	16%	5.5%	?	-1%	-1%	.	1%	3%
CCOc1ccc(/C=C2\SC(=S)N(CC(=O)NCCCN3CCOCC3)C2=O)cc1	15%	.	5%[46.1 µM]	9%	-1%	49%[activator]	8%	.
COCC(C)n1c(SCc2nc3ccccc3c(=O)[nH]2)nc2ccccc2c1=O (stereo not drawn)	?	.	?	.	0%	-13%	2%	.
COc1ccc(NC(=O)COC(=O)CNS(=O)(=O)c2ccccc2)cc1OC	16%	.	19%[14.2 µM]	.	1%	-5%	-13%	.
O=S1(=O)CCO[C@H]2Cc3ccccc3[C@H]2N1Cc1cccc(C(F)(F)F)c1	.	.	.	-38%	-13%	-19%	-1%	.
O=C(c1ccccc1)[C@H]1CC=CC[C@H]1C(=O)O	8%	2.1%	25%	6%	7%	-25%	24%	-10%
N/C(=N\OC(=O)Cc1ccccc1)c1ccccn1	7%	4.2%	14%	-1%	12%	42%[activator]	-7%	-5%
CCc1cccc(C)c1NC(=O)CN(C)S(=O)(=O)c1ccc(-c2ccc(=O)[nH]n2)s1	.	.	.	0%	?	-14%	-2%	.
Fc1ccc(NC(=S)Nc2cccnc2)cc1	-19%[46.1 µM]	.	8%[46.1 µM]	2%	0%	3%	0%	.
CC1=NN(c2ccc(Br)cc2)C(=O)/C1=C/c1ccc(-c2ccccc2C(=O)O)o1	.	.	.	3%	5%	-15%	-3%	.
C[C@]12CCC3C(CC[C@H]4C[C@@H](O)CC[C@]34C)C1[C@H]1CN=N[C@H]1[C@@H]2O (stereo partly drawn)	8%[46.1 µM]	.	0%[46.1 µM]	.	0%	9%	-1%	.
COc1ccc(/C=C/C(=O)NCC(=O)N/N=C(/C)c2ccc(Cl)cc2)cc1	-5%[46.1 µM]	.	2%[46.1 µM]	-9%	-2%	-3%	0%	.

# Just StopGo reporter, RE007 growth inh and Marburg entry inh (three entries from above):
SMILES	StopGo reporter	RE007 growth inh	Marburg entry inh
COc1ccc(/C=C/C(=O)NCC(=O)N/N=C(/C)c2ccc(Cl)cc2)cc1	-3%	0%	2%[46.1 µM]
Fc1ccc(NC(=S)Nc2cccnc2)cc1	3%	0%	8%[46.1 µM]
CCc1cccc(C)c1NC(=O)CN(C)S(=O)(=O)c1ccc(-c2ccc(=O)[nH]n2)s1	-14%	-2%	.

# Further records:
canonical_smiles	Lassa entry inh	Cruzain inh Det	Marburg entry inh	NS1 inh	SARS PLpro yeast	StopGo reporter	RE007 growth inh	Cruzain noTriton
N#C/C(=C\c1ccc(Cl)s1)C(=O)N1CCN(c2ccccc2)CC1	-3%	-4.8%	?	-5%	6%	-11%	1%	10%
CCOc1cc(N2CCOCC2)c(OCC)cc1NC(=O)c1ccc(OC(C)C)cc1	-23%	.	-1%[46.1 µM]	8%	2%	-27%	5%	.
C/C(N)=C(/C#N)C(=O)COC(=O)C(c1ccccc1)c1ccccc1	-19%	.	8%	.	-1%	-13%	-1%	.
Cc1nc(CS(=O)c2ccc(Cl)cc2)cc(N2CCOCC2)n1 (stereo not drawn)	15%	4.2%	?	-8%	7%	-12%	10%	-11%
CC12CCC(C(=O)NCCCN3CCOCC3)(C(Br)C1=O)C2(C)C (stereo not drawn)	?	.	11%[46.1 µM]	-4%	1%	8%	10%	.
COc1ccc(N2CC(C(=O)Nc3c4c(nn3-c3ccc(OC)cc3)CS(=O)(=O)C4)CC2=O)cc1 (stereo not drawn)	16%	.	9%	-7%	-7%	9%	32%	.
COC(=O)c1ccc(NC(=S)N2CCN(C(=O)c3ccco3)CC2)cc1	-13%	.	?	15%	1%	8%	0%	.
O=C(OCC(=O)c1ccccc1Br)c1ccccn1	22%	-2.3%	-1%&-1%[46.1 µM]	-11%	-6%	56%[activator]	15%	7%
Cc1nc(C)c(-c2ccn(S(=O)(=O)c3ccc(Cl)cc3)n2)o1	10%	.	?	-4%	-1%	?	13%	.
O=C(Nc1nnc(-c2ccccc2)s1)c1cccc(S(=O)(=O)N2CCOCC2)c1	15%	-16%	-15%	3%	12%	22%	0%	?
O=C(Nc1ccc(F)cc1)c1cc(-c2ccccn2)nc2c(Cl)cccc12	.	.	.	7%	-1%	-19%	-4%	.
O=C1CCCN1CCCNc1nc2c(S(=O)(=O)c3ccc(Br)cc3)nnn2c2ccccc12	.	.	.	6%	5%	-4%	-10%	.
COC(=O)c1ccc(NC(=O)COc2ccccc2OC)cc1	7%	-1.3%	-5%	-21%	2%	-5%	?	-3%
COC(=O)c1ccc(CSc2nc3ccccc3s2)o1	-3%	-4.0%	0%	-46%	-19%	.	-2%	-7%
O=C(NCc1cccnc1)NC(=O)c1ccc(Cl)cc1	.	.	.	0%	-6%	1%	17%	.
O=C1C(=O)N(CCCN2CCOCC2)C(c2ccc(F)cc2)/C1=C(/O)c1ccccc1 (stereo not drawn)	.	.	.	-1%	-2%	-1%	10%	.
CCOc1ccccc1NC(=S)NCc1ccccc1	11%[46.1 µM]	.	6%[46.1 µM]	5%	1%	35%[activator]	-11%	.
O=C(NCCCN1CCCCCC1)c1ccc2c(c1)NC(=O)C(N1CCOCC1)S2 (stereo not drawn)	4%	-0.7%	-17%	-5%	-4%	-8%	-18%	-4%
COc1ccc(CCNC(=O)COC(=O)c2cc(=O)[nH]c3ccccc23)cc1	-6%	.	19%	.	-7%	-13%	10%	.
NNC(=O)c1cncn1-c1ccc(F)cc1	.	.	10%[46.1 µM]	.	-1%	-6%	-18%	.
CC1=C(c2ccccc2)[N+](=O)C2(CCCCC2)N1[O-]	-11%	.	6%[46.1 µM]	.	3%	2%	-8%	.
O=C(COC(=O)c1cccc(S(=O)(=O)N2CCOCC2)c1)Nc1ncc(C(F)(F)F)cc1Cl	17%	-8.0%	-6%	3%	-2%	-15%	-16%	22%
S=C(NCCc1ccccc1)NCCc1cnc[nH]1	.	.	.	19%	8%	0%	-7%	.
C=CCn1c(SCC(=O)NCCO)nc2sc(C)c(C)c2c1=O	8%	.	-1%[46.1 µM]	.	0%	3.5µM*	26%	.
C=CCOc1ccccc1CN1CCC(Oc2ccc(C(=O)N3CCCC3)cc2)CC1	.	.	.	-11%	0%	-16%	-13%	.
O=C(c1ccc2c(c1)OCO2)n1nnc2ccccc21	.	-9.5%	.	-82%	1%	.	.	-8%
COc1cccc(-n2nnc3c(=O)n(CC(=O)Nc4cc(C)on4)cnc32)c1	.	.	.	6%	0%	-19%	18%	.
O=C(NCCCCCNC(=O)c1cccnc1)c1cccnc1	12%	-2.0%	-2%	-2%	-7%	-15%	0%	2%
COCCN(CCOC)C(=O)c1cc2sc3ccccc3c2s1	-12%	-7.3%	?	-101%	-8%	.	5%	?
COc1cccc(-n2nnc3c(=O)n(CC(=O)N4CCCc5ccccc54)cnc32)c1	7%	-4.4%	11%	0%	7%	7%	8%	-9%
C/C(=C\c1ccccc1)CN1CCN(c2cccc(Cl)c2)CC1	7%	-4.0%	17%	3%	1%	-5%	1%	-13%
O=C(O)c1ccc(CSc2nnc(COc3ccc(Cl)cc3Cl)o2)cc1	.	-7.7%	.	-56%	1%	9%	7%	8%

# Outcome played no part in choosing rows; overall some 4.5% were active at least once.
